PABP polyA inh = PABP poly(A) RNA binding inhibitors, primary screen, biochemical, fluorescence polarization, uHTS. AID 2014, 2009. 1% of 290,000 active. Polyadenylate-binding protein 1 (Homo sapiens), P11940. inhibition, % at 35 µM;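 active = 50% or more with normal probe brightness, or confirmed in later tests; inconclusive = above 50% with abnormal brightness, or retests that disagree; inactive = below 50% or failed in later tests; about a fifth of its hits are not listed in these tables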;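 note: calls also rest on retests at 20 µM and on dose response follow-up; controls were probe without protein and protein plus probe with vehicle; some compounds called inactive have numbers as strong as hits; many hits fall short of the cut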
Target sequence (P11940 whole entry, looked up): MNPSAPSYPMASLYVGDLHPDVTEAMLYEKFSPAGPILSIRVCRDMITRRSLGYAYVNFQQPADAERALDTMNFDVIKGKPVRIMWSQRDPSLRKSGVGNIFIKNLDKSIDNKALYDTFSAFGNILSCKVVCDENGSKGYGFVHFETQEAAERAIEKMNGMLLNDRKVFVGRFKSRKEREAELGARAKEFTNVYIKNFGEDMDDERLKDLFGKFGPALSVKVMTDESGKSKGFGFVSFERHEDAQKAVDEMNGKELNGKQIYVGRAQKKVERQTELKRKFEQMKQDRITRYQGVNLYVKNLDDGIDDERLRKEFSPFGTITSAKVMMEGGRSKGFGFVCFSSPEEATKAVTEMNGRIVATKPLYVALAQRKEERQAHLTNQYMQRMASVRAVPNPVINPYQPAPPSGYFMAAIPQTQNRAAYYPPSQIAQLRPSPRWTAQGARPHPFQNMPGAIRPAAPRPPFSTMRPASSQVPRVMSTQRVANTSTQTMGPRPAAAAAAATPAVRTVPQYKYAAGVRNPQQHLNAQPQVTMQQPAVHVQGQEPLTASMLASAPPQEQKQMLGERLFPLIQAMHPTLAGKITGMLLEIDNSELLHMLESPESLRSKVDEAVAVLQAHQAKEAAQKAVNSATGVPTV
CSC inhib = cancer stem cell viability inhibitors, primary screen, luminescence | cancer stem cell-like cells viability | inhibition, % at 7.5 µM | 1.1% of 300,000 active;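 active = mean at 75% or more and at least half the replicates too; inconclusive = mean and replicates disagree; tested in HMLE shEcad cells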;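 note: 0% = median of negative and 100% = median of positive control wells; the first replicate is given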
UUG fidelity = modulators of yeast start codon fidelity, primary screen, whole organism, S. cerevisiae, single point, plate reader. AID 602363, 2012. activity score, % at 18.7 µM. S. cerevisiae UUG-firefly luciferase reporter, luminescence/redox ratio. 0.13% of 350,000 active;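 active = replicate mean at a twofold rise or more, about +100% in these data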;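 note: firefly luciferase made from a UUG start codon reports start codon fidelity; reporter light over untreated wells divided by growth signal over untreated wells; some hits fall short of that in this replicate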
Rce1 inh = yeast Rce1p protease inhibitors, primary screen, biochemical, fluorescence, cell-free homogeneous | CAAX prenyl protease 2 (Saccharomyces cerevisiae (strain ATCC 204508 / S288c)), Q03530 | yeast membranes, quenched prenylated peptide cleavage fluorescence | calls only | 0.27% of 290,000 active;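 active = fall in fluorescence gain of 50% or more versus controls, with final raw signal at or below 3038400; inconclusive = same 50% fall but final raw signal above 3038400; inactive = fall in fluorescence gain under 50%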;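 note: plate controls were neutral control wells for no effect and wells lacking membranes for full effect; tested at 10 µM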
Target sequence (Q03530 whole entry, looked up): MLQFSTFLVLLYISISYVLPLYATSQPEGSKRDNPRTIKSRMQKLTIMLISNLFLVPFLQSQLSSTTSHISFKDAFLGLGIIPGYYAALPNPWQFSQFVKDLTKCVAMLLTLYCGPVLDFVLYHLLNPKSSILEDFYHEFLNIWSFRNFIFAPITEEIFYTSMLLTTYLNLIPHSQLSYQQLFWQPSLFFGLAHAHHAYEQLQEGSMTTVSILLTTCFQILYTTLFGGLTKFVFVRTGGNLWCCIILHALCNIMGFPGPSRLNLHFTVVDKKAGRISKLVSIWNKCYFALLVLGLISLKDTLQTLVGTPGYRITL
MT1-MMP act inh = blockers of MT1-MMP proenzyme processing, primary screen, HT1080 RFP-PRO-GFP cells, GFP/RFP fluorescence; Matrix metalloproteinase-14 (Homo sapiens), P50281; GFP/RFP ratio fluorescence, overnight; percent of plate control window, DMSO zero; GFP/RFP ratio change, % at 20 µM; 0.061% of 360,000 active; AID 651647, 2012;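 active = GFP/RFP ratio change of at least 30% with cell ATP level not reduced by more than half and red fluorescence within 50% of control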; note: strong numbers were not always called active
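Test system: HT1080 RFP-PRO-GFP cells; Benchmarks: DMSO and RFP-L50D-GFP cell wells; Timing: cells overnight before dosing, compound overnight, 37 °C, 5% CO2; Compound: one 20 µM compound dose with 1% DMSO; Read-out: GFP/RFP fluorescence ratio.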
eIF4H inh = human eIF4H binding inhibitors, primary screen, translation initiation inhibitor project, biochemical, uHTS, fluorescence polarization. Eukaryotic translation initiation factor 4H (Homo sapiens), Q15056. eIF4H fluorescence polarization binding assay. inhibition, % at 35 µM. 0.94% of 290,000 active;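 active = 50% or more with normal probe brightness, or confirmed in later tests; inconclusive = above 50% with abnormal brightness, or retests that disagree; inactive = below 50% or failed in later tests; about a fifth of its hits are not listed in these tables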;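 note: calls also rest on retests at 20 µM and on dose response follow-up; 0% = protein and probe with vehicle and 100% = probe without protein; strong numbers were not always called active; many hits fall short of the cut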
Env fusion inh = inhibitors of HIV-1 Env-driven cell-cell fusion, primary screen, HeLa-JRFL effector, CEM21 target cells, luciferase; AID 651610, 2012; 1.1% of 360,000 active; inhibition, % at 12.3 µM;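 active = mean replicate inhibition score of at least 50 and every replicate individually at or above 50; inconclusive = only one of the two criteria met; inactive = mean below 50 and not all replicates reaching 50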;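 note: 0% = plate neutral controls and 100% = maraviroc near 300 nM; one replicate is shown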
eIF4H inh retest = also measured in eIF4H inh; calls as there; inhibition, %; compound at 20 µM; confirmation average;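 mean of two retest wells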
PABP polyA inh retest = also measured in PABP polyA inh; calls as there; inhibition, %; compound at 20 µM; confirmation repeats;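 mean of two retest wells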
MT1-MMP act inh RFP = also measured in MT1-MMP act inh; calls as there; RFP signal change, %; measured here: RFP expression control read;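 0 = vehicle wells; hits needed this value within 50% of zero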
Starred values were filed as active, the others as inactive; i = inactive; ? = inconclusive; . = not tested or not shown.

SMILES	PABP polyA inh	CSC inhib	UUG fidelity	Rce1 inh	MT1-MMP act inh	MT1-MMP act inh RFP	eIF4H inh	Env fusion inh	others
COC(=O)c1cc(CSc2nc3ccc(C)cc3[nH]2)oc1C	2.2	-1.0	-13.7	i	-8.5	-25.8	4.3	.
Cc1nn(Cc2c(F)c(F)c(F)c(F)c2F)c(C)c1NC(=O)c1ccc(COc2ccc(F)cc2)o1	-2.7	-12.3	19.7	i	-2.9	-15.6	-2.0	67.1*
COc1ccccc1N1CCN(C(=O)c2ccc(Cn3c(=S)[nH]c4cc5c(cc4c3=O)OCO5)cc2)CC1	-7.6	10.0	-8.4	.	-6.2	-3.3	4.7	22.9
N#Cc1ccsc1NC(=O)CSc1nnc(-c2ccccc2)o1	23.7	0.8	-19.0	i	5.2	9.8	11.4	-56.7
CCOc1ccc2ncc(S(=O)(=O)c3ccccc3)c(N3CCC4(CC3)OCCO4)c2c1	-5.5	9.1	.	i	.	.	-1.7	-6.3
O=C(Nc1ccc(S(=O)(=O)Nc2ncccn2)cc1)c1ccccc1NS(=O)(=O)c1ccc(F)cc1	0.7	-6.7	.	i	3.9	4.8	2.7	12.4
COc1cccc(NC(=O)Nc2cccnc2)c1	-13.0	-6.5	-14.6	i	-0.6	1.0	-3.3	10.8
CC(C)Cc1nc2oc3c(=O)[nH]cnc3c2c2c1CCCC2	9.3	-4.1	0.4	i	3.6	-2.0	1.1	-11.5
COc1cc2ccccc2cc1C(=O)Nc1nc(C)c(C(C)=O)s1	-0.1	14.7	-16.1	i	1.3	1.0	-14.8	.
CN(C(=O)c1c[nH]c(=O)cc1C(F)(F)F)c1ccc(Cl)cc1	2.4	10.8	.	.	10.8	4.0	1.6	-15.7
CC(=O)N1c2ccc(S(=O)(=O)NCC3CCC(C(=O)NCc4ccccc4)CC3)cc2CC1C (centres undefined)	-1.4	-8.1	-9.2	i	5.0	-4.8	-13.2	-2.1
COc1ccc(-c2cc(C(F)(F)F)nc(S(C)(=O)=O)n2)cc1	1.4	96.4*	.	i	-4.2	-5.1	2.4	?
Oc1oc(-c2ccc(Br)cc2)nc1C=Nc1ccc(Br)cn1	4.2	-7.6	.	i	0.5	4.4	-8.1	7.9
CCN(CC(=O)NCc1cccs1)CC(=O)Nc1c(Cl)ccc(C)c1Cl	.	.	-14.7	.	1.0	1.2	.	12.9
Cc1cc(C(=O)COC(=O)CNC(=O)c2ccccc2)c(C)n1CC1CCCO1 (centres undefined)	?	-15.6	.	i	-1.3	1.4	10.6	4.3
COc1ccc(O)c(CNc2ccccc2F)c1	0.5	0.3	2.0	i	9.9	4.4	-4.0	-3.7
O=C(Nc1ccccc1)N1CC=C(c2ccccc2)CC1	8.9	2.1	.	i	.	.	1.7	.
O=C(Nc1ncccc1O)c1ccc(S(=O)(=O)N2CCCC2)cc1	.	1.0	-17.9	i	5.6	4.8	.	23.3
CC(=O)N1C(=O)c2cccc3cccc(c23)C(=O)N1C(C)=O	2.4	-3.5	.	i	.	.	3.8	.
CNc1ncnc2c1ncn2[C@H]1CN(Cc2ccc(-c3ccccc3)cc2)C[C@@H](CO)O1	.	.	2.2	.	5.0	-11.5	.	10.0
C=C1CCN([C@H](C(=O)NCc2ccc(Cl)c(Cl)c2)C(C)C)S(=O)(=O)c2ccccc21	30.7	3.5	-15.2	i	0.2	-0.7	-3.4	?
CN(C(=O)COC(=O)c1cc(NS(=O)(=O)c2cc([N+](=O)[O-])ccc2Cl)ccc1O)C1CCCCC1	-3.4	4.6	.	i	-0.6	2.1	-6.1	-15.6
CC(C)CC(NC(=O)C(CC(C)C)NC(=O)C(Cc1ccc(OCc2ccccc2)cc1)NC(=O)OC(C)(C)C)C(N)=O (centres undefined)	6.6	3.4	-14.0	i	-4.0	-5.3	1.3	-5.3
Cc1ccc(N=Nc2c(N)[nH]n3c(=O)cc(-c4ccccc4)nc23)cc1	-0.5	.	-10.3	i	-0.7	-6.7	47.3	.
O=C(Nc1ccc(Oc2cccnc2)cc1)c1ccccc1F	-1.2	-1.5	-22.2	i	0.0	-6.6	-1.2	-37.8
CC(C)(C)OC(=O)N[C@@H](C(=O)OC(C)(C)C)c1ccccc1	.	-9.5	-18.7	.	-0.3	-3.2	.	-21.1
Cc1nc2nc[nH]n2c(=O)c1C/C=C/c1ccccc1	-9.3	-4.6	2.4	i	-5.1	-3.5	8.0	8.6
COC(=O)C1=C(C)Nc2c(c(=O)n(C)c(=O)n2C)C1c1ccc(Cl)cc1 (centres undefined)	3.8	-13.3	-38.4	i	2.4	2.3	-3.8	0.1
Cc1ccc(/C=N/n2c(-c3ccc(Cl)cc3)n[nH]c2=S)o1	0.4	-0.5	.	i	-1.2	-0.3	6.4	-14.3
CCOC(=O)c1c(C)c(C(=O)NCCN2CCOCC2)c(C)n1C	5.5	-7.3	.	i	-1.0	4.7	7.8	.
CCC1Nc2ncnc(N3CCCCC3)c2N(Cc2ccc(Br)cc2)C1=O (centres undefined)	.	12.3	-13.2	i	3.6	0.7	.	18.0
CC1CCCN(S(=O)(=O)c2ccc(S(=O)(=O)NC(C)c3cccs3)cc2)C1 (centres undefined)	0.6	9.3	-6.8	.	-10.5	-5.8	-3.6	.
COc1ccccc1C(=O)N/C(=C\c1cn(C)c2ccccc12)C(=O)NCCCN1CCOCC1	-3.9	0.1	4.9	i	2.5	3.3	-3.3	-0.9
COc1ccc(C(=O)NC(=S)Nc2ccc3oc(=O)ccc3c2)cc1OC	-2.9	13.3	53.8	i	1.3	3.0	11.7	-17.0
Cc1cc(C)n(C(CC(=O)N2CCc3ccccc3C2)C(=O)O)n1 (centres undefined)	21.2	-5.5	0.3	i	-1.2	2.9	32.0	34.2
O=C(CC1SC(=O)N(c2ccccc2)C1=O)Nc1ccc(Br)cc1 (centres undefined)	-5.8	-6.1	-25.6	i	4.4	2.7	0.2	3.3
COCCNS(=O)(=O)c1ccc(F)c(OC)c1	7.5	.	-15.1	i	-2.2	1.2	1.7	-13.2
O=C(NCCc1ccccn1)c1nc(Cn2cc(Br)cn2)no1	-0.1	-14.0	-16.4	.	1.2	3.5	6.7	11.7
COC(=O)CC(c1ccc(C(C)C)cc1)n1cccc1 (centres undefined)	1.1	5.1	-8.2	i	-2.8	-2.6	3.9	2.3
COC(=O)c1ccc(COc2ncnc3c(Cl)cc(Cl)cc23)o1	-1.3	-3.0	14.4	i	-0.6	-6.6	0.6	-174.7
Cc1cccc(NC(=O)CNC(=O)Cc2ccc(S(=O)(=O)N3CCOCC3)s2)c1C	.	-10.0	-1.9	.	-0.4	1.1	.	5.8
CN(C)CCN(C(=O)c1ccc(C(=O)c2ccccc2)cc1)c1nc2cc3c(cc2s1)OCCO3	0.0	-2.3	9.0	i	0.5	3.7	-8.1	-7.1
Cc1cccc(NC(=O)c2cn(-c3ccccc3)nc2-c2ccccc2)c1	-5.4	-7.2	-13.5	i	6.6	0.7	10.6	-7.9
O=C(Cn1nc([N+](=O)[O-])nc1Br)NC1CCCCC1	-3.9	-11.8	-9.0	i	4.8	3.5	-12.1	2.0
CCN(CC)CCOC(=O)c1ccc(NC(=O)CCNC(=O)Cn2ccc3ccccc3c2=O)cc1	-1.5	.	-20.2	i	-2.9	-2.8	-6.5	.

The list goes on, overlapping the part above by four compounds.
SMILES	PABP polyA inh	CSC inhib	UUG fidelity	Rce1 inh	MT1-MMP act inh	MT1-MMP act inh RFP	eIF4H inh	Env fusion inh	others
CN(C)CCN(C(=O)c1ccc(C(=O)c2ccccc2)cc1)c1nc2cc3c(cc2s1)OCCO3	0.0	-2.3	9.0	i	0.5	3.7	-8.1	-7.1
Cc1cccc(NC(=O)c2cn(-c3ccccc3)nc2-c2ccccc2)c1	-5.4	-7.2	-13.5	i	6.6	0.7	10.6	-7.9
O=C(Cn1nc([N+](=O)[O-])nc1Br)NC1CCCCC1	-3.9	-11.8	-9.0	i	4.8	3.5	-12.1	2.0
CCN(CC)CCOC(=O)c1ccc(NC(=O)CCNC(=O)Cn2ccc3ccccc3c2=O)cc1	-1.5	.	-20.2	i	-2.9	-2.8	-6.5	.
CN(Cc1ccccc1)C(=O)C1CCCN(Cc2ccc(Cl)cc2)C1 (centres undefined)	10.2	16.3	9.5	i	6.3	-2.2	-5.2	.
CCOC(=O)CN1C(=O)N(CC)C(C)=C(C(=O)OC)[C@@H]1c1ccccc1	-0.8	7.6	-16.3	i	-0.5	-3.7	-11.3	-28.6
CCCCS(=O)(=O)NC1=NCN(Cc2ccco2)CN1	-4.1	-6.8	2.4	i	4.3	4.7	-4.9	-110.7
COC(=O)C1(C(=O)OC)NOC2C(=O)N(c3ccc(Cl)cc3Cl)C(=O)C21 (centres undefined)	-12.8	-7.3	-10.8	.	3.8	4.3	2.3	-117.1
CCCCN1C(=O)C(CC(=O)NC(c2ccccc2)c2ccccc2)CC(C(=O)N(C)C)=C1C (centres undefined)	.	.	-15.0	.	-0.5	0.2	.	-14.0
Cc1ccc2ncc(NC(=O)c3ccc(F)cc3)c(=O)n2c1	1.7	-4.5	-15.5	i	9.1	3.0	-9.1	-459.4
CCc1ccc(N/C(SCc2ccccc2C)=C(/C#N)C(=O)NCc2ccco2)cc1	1.3	45.3	-23.1	i	-1.5	-5.2	-2.3	-5.1
C[n+]1ccc(/C=C/c2cccs2)cc1	29.3	-6.5	-7.3	i	-0.5	-4.8	1.6	4.5
Cc1[nH]nc2c1C(=O)CC(C)(C)C2	-1.2	-18.4	-13.5	i	4.5	5.4	-4.1	.
O=C(CN1C(=O)COc2ccccc2C1=O)c1ccc2c(c1)OCCO2	7.1	-19.9	-24.8	i	-0.2	6.2	-10.5	-6.3
COc1cccc(C(=O)CC(C(=O)O)c2ccc(Cl)cc2)c1 (centres undefined)	-0.3	-0.9	-4.7	i	3.4	1.5	3.7	-5.0
O=c1[nH]c2c(c(=O)[nH]1)CCCCCC2	.	.	-2.2	.	3.1	4.4	.	3.7
Cc1c(C#N)c(O)n(CCO)c(=O)c1N=Nc1ccc(S(N)(=O)=O)cc1	-10.7	2.6	-5.0	i	10.1	10.0	45.3	-7.5
CCC(C(=O)OCC(=O)Nc1cc(OC)ccc1OC)c1ccccc1 (centres undefined)	50.4*	-14.0	.	i	-2.6	0.9	-5.6	7.5	eIF4H inh retest=41.0;PABP polyA inh retest=50.6*
CC1Cc2ccccc2N1S(=O)(=O)c1cccc(C(=O)N2CCN(c3ncccn3)CC2)c1 (centres undefined)	6.9	50.6	.	i	-6.8	-11.9	8.1	-28.8
COc1ccc(C(=O)C2CC2c2ccc3c(c2)OCO3)cc1 (centres undefined)	42.4	0.7	.	i	-2.3	1.4	-9.3	7.2
O=C(CNS(=O)(=O)c1ccc(Br)s1)NCc1ccc2c(c1)OCO2	-2.6	26.0	.	i	1.3	-0.5	0.9	.

Screening data: PubChem, several laboratories

A portion of the library, so the mix of outcomes need not match the whole.
